CSC inhib: cancer stem cell viability inhibitors, primary screen, luminescence. cancer stem cell-like cells viability. inhibition, % at 7.5 µM. hit rate 1.1% among 300,000. AID 2717, 2010;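 active = mean at 75% or more and at least half the replicates too; tested in HMLE shEcad cells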;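 also: 0% = median of negative and 100% = median of positive control wells; the first replicate is given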
Yeast UUG start: modulators of yeast start codon fidelity, primary screen, whole organism, S. cerevisiae, single point, plate reader; S. cerevisiae UUG-firefly luciferase reporter, luminescence/redox ratio; activity score, % at 18.7 µM; hit rate 0.13% among 350,000;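 active = replicate mean at a twofold rise or more, about +100% in these data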;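 also: firefly luciferase made from a UUG start codon reports start codon fidelity; reporter light over untreated wells divided by growth signal over untreated wells; some hits fall short of that in this replicate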
HIV Env fusion: inhibitors of HIV-1 Env-driven cell-cell fusion, primary screen, HeLa-JRFL effector, CEM21 target cells, luciferase; hit rate 1.1% among 360,000; inhibition, % at 12.3 µM;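 active = mean replicate inhibition score of at least 50 and every replicate individually at or above 50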;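 also: 0% = plate neutral controls and 100% = maraviroc near 300 nM; one replicate is shown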
PABP FP inh: PABP poly(A) RNA binding inhibitors, primary screen, biochemical, fluorescence polarization, uHTS | Polyadenylate-binding protein 1 (Homo sapiens), P11940 | inhibition, % at 35 µM | hit rate 1% among 290,000;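 active = 50% or more with normal probe brightness, or confirmed in later tests; about a fifth of its hits are not listed in these tables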;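 also: calls also rest on retests at 20 µM and on dose response follow-up; controls were probe without protein and protein plus probe with vehicle; some compounds called inactive have numbers as strong as hits; many hits fall short of the cut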
Target sequence (P11940 whole entry, looked up): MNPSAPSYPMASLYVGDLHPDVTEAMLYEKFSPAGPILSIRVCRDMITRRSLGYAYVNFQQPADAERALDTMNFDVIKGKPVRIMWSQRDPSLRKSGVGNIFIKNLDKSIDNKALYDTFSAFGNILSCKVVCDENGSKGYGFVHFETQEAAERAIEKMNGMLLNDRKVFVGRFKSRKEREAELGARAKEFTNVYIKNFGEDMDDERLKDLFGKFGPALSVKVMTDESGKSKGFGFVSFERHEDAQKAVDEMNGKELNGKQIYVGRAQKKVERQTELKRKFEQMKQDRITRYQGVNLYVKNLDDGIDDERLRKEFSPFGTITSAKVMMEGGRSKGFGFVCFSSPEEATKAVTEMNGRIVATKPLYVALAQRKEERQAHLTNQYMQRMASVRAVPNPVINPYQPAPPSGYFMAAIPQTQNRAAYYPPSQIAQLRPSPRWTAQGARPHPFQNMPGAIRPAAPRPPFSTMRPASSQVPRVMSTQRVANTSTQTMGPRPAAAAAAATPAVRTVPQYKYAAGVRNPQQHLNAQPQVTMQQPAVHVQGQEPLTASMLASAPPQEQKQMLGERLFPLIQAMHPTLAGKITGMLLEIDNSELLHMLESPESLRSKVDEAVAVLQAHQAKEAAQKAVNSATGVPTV
MT1-MMP act inh: blockers of MT1-MMP proenzyme processing, primary screen, HT1080 RFP-PRO-GFP cells, GFP/RFP fluorescence. GFP/RFP ratio fluorescence, overnight; percent of plate control window, DMSO zero. GFP/RFP ratio change, % at 20 µM. hit rate 0.061% among 360,000. AID 651647, 2012;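 active = GFP/RFP ratio change of at least 30% with cell ATP level not reduced by more than half and red fluorescence within 50% of control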; also: strong numbers were not always called active
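Material – HT1080 RFP-PRO-GFP cells · Control set – DMSO wells and RFP-L50D-GFP cells · Incubation – overnight cell settling, then overnight compound exposure, 37 °C, 5% CO2 · Compound dosing – single-point 20 µM compound, 1% DMSO · Read-out – GFP/RFP fluorescence ratio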
eIF4H inh: human eIF4H binding inhibitors, primary screen, translation initiation inhibitor project, biochemical, uHTS, fluorescence polarization; Eukaryotic translation initiation factor 4H (Homo sapiens), Q15056; eIF4H fluorescence polarization binding assay; inhibition, % at 35 µM; hit rate 0.94% among 290,000; AID 2012, 2009;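 active = 50% or more with normal probe brightness, or confirmed in later tests; about a fifth of its hits are not listed in these tables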;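 also: calls also rest on retests at 20 µM and on dose response follow-up; 0% = protein and probe with vehicle and 100% = probe without protein; strong numbers were not always called active; many hits fall short of the cut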
Rce1 inhib: yeast Rce1p protease inhibitors, primary screen, biochemical, fluorescence, cell-free homogeneous. yeast membranes, quenched prenylated peptide cleavage fluorescence. calls only. CAAX prenyl protease 2 (Saccharomyces cerevisiae (strain ATCC 204508 / S288c)), Q03530. hit rate 0.27% among 290,000. AID 2563, 2010;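 active = fall in fluorescence gain of 50% or more versus controls, with final raw signal at or below 3038400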;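 also: plate controls were neutral control wells for no effect and wells lacking membranes for full effect; tested at 10 µM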
MT1-MMP act inh RFP: further read-out of MT1-MMP act inh, marked with its call; RFP signal change, %; measured here: RFP expression control read;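 0 = vehicle wells; hits needed this value within 50% of zero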
Numbers without * were called inactive; i = inactive; / = no result given; & = joins results of further samples.

SMILES	CSC inhib	Yeast UUG start	HIV Env fusion	PABP FP inh	MT1-MMP act inh	MT1-MMP act inh RFP	eIF4H inh	Rce1 inhib
Cc1ccc(CN2CC(C(=O)N3CCN(c4ccccc4O)CC3)CC2=O)cc1 (stereo not drawn)	-7	-11	/	/	3	-1	/	i
C=CCn1c(SCC(=O)Nc2c(C)n(C)n(-c3ccccc3)c2=O)nc2sc(C)c(C)c2c1=O	-6	11	-16	7	-1	-4	-1	i
COc1ccc2c(c1)c(C(C)=O)c(C)n2-c1ccccc1OC	3	/	10	/	0	0	/	i
N#Cc1ccccc1S(=O)(=O)N1CCN(C(=O)Cc2coc3cc(O)ccc23)CC1	-5	-4	4	/	26	-3	/	/
CN1CCC2(CC1)N=C(c1ccc(F)cc1)C(=S)N2C(=O)c1ccccc1	-5	/	-17	22	4	4	12	i
O=C(C1CC1)N1CCc2cc(Br)cc(S(=O)(=O)NC3CCCCC3)c21	1	2	0	7	3	-3	9	i
CN(CC(=O)O)Cc1nc2ccccc2[nH]1	6	4	/	20	-5	-3	11	i
CCCCn1c(CCC(=O)O)ccc1-c1cccs1	9	-19	5	5	-1	7	7	i
CC1(c2ccccc2)NC(=O)N(CC(=O)Nc2ccc([N+](=O)[O-])cc2)C1=O (stereo not drawn)	-8	9	-1	-2	-2	-3	-8	i
CCN(Cc1cnn(C)c1)C(=O)c1cc(COc2ccc3c(c2)CCCC3)on1	2	-19	-9	1	4	-15	-12	i
Nc1c(Cl)ncnc1N/N=C/c1cccnc1	4	/	-6	4	6	1	-10	i
O=C(c1cccc([N+](=O)[O-])c1)c1ccc2c(c1)OCCOCCOCCO2	-3	-12	11	33	-2	-3	29	i
O=c1c2oc3nc4c(cc3c2ncn1CCCc1ccccc1)CCCC4	14	/	-11	-4	-3	-3	5	i
CCOC(=O)c1[nH]ncc1CN1CCc2ccc(NC(=O)C3CCCO3)cc2C1 (stereo not drawn)	-9	-8	16	-3	-1	3	-4	i
Cc1cccc(-n2ccnc2SCC(=O)Nc2nnc(C)s2)c1	3	-23	-27	-5	5	0	-3	i
COc1ccccc1OCCNC(=O)Nc1cc(F)c(F)cc1Cl	7	-2	4	5	-4	-6	-8	i
COC(=O)Nc1c(-c2ccccc2)nc2ccc(C)cn12	-7	0	/	-4	-1	0	1	i
C=Cc1c(C)c2cc3[nH]c(cc4nc(cc5nc(cc1[nH]2)C(C)=C5CCC(=O)O)C(CCC(=O)O)=C4C)c(C)c3C=C	14&32	-14&-4	/	/	18&26	5&8	/	i
COc1cc(NC(=O)Nc2nc(C(N)C3CCCCC3)cs2)cc(OC)c1OC (stereo not drawn)	/	-6	-4	/	-1	-13	/	/
C[C@@H]1CN([C@H](C)CO)C(=O)CCCn2cc(nn2)CO[C@H]1CN(C)S(=O)(=O)c1ccc(-c2ccccc2)cc1	/	-1&11	-2	/	2	5	/	/
O=C(C1CCN(c2nnc(-n3cccc3)s2)CC1)N1CCN(Cc2ccc3c(c2)OCO3)CC1	-21	-6	41	-19	-2	-19	-8	i
Cc1oc(-c2cccc(Cl)c2)nc1CN1CCCC(C(=O)NC(C)c2ccc3c(c2)OCCO3)C1 (stereo not drawn)	5	14	84*	1	-4	-19	-3	i
COc1ccc(CCNC(=O)CC2SC(=NCCc3ccccc3)NC2=O)cc1 (stereo not drawn)	6	/	12	-4	3	4	4	i
O=S1(=O)CCN2C(c3ccco3)=CSC2=N1	-21	-1	/	3	0	4	-6	i
COc1ccccc1CNC(=O)c1ccc(S(=O)(=O)N(C)c2ccccc2)cc1	/	2	-5	/	2	-2	/	/
Later entries.
SMILES	CSC inhib	Yeast UUG start	HIV Env fusion	PABP FP inh	MT1-MMP act inh	MT1-MMP act inh RFP	eIF4H inh	Rce1 inhib
O=C(NCC(c1ccco1)N1CCCCC1)c1cccc(NS(=O)(=O)c2ccc(Br)cc2)c1 (stereo not drawn)	55	/	-1	/	5	3	/	i
O=C(NCc1ccncc1)C1CCC(=O)N(CCc2ccc(Cl)cc2)C1 (stereo not drawn)	0	4	-4	-12	1	2	7	i
Cc1ccccc1-c1noc(C(C)NC(=O)c2ccco2)n1 (stereo not drawn)	3	-24	6	3	2	3	1	i
CCc1nc2ccc(C(=O)N3CCN(C(=O)c4ccco4)CC3)cn2c1N(CC)Cc1cccc(Br)c1	/	-5	-8	/	-5	-7	/	/
CCOc1cccc(/C=N/NS(=O)(=O)c2ccc(C)c([N+](=O)[O-])c2)c1O	-2	/	7	19	5	3	4	i
Cc1occc1C(=O)n1cnc2ccccc21	-13	/	/	12	/	/	3	i
CCC1CCc2c(sc3nc(SCC(=O)NCc4ccco4)n(-c4ccccc4)c(=O)c23)C1 (stereo not drawn)	-42	-5	/	-4	3	0	4	i
COc1ccc(C(=O)C2CCCN(Cc3cccn3-c3ccc(Cl)cn3)C2)c(OC)c1 (stereo not drawn)	/	/	29	4	-7	-7	6	i
CCCN1CCN(CCCNC(=O)c2cc3c(s2)-c2c(C)cccc2OC3)CC1	14	-16	4	-3	1	-2	-16	i
COc1ccc(NCC(=O)Nc2cccc(C(F)(F)F)c2)cc1S(=O)(=O)N1CCOCC1	4	-22	/	/	2	-11	/	/
C/C(=N\NC(N)=S)c1ccncc1	-6	4	-17	8	3	5	-7	i
CCOC(=O)c1cnc2c([N+](=O)[O-])cnn2c1C	-22	-12	14	-3	-3	3	-2	i
O=C(Nc1cc(S(=O)(=O)N2CCOCC2)ccc1N1CCOCC1)c1ccc(Cl)nc1	-11	-3	9	-13	0	3	-3	i
Cc1[nH]n(-c2ccc(C(=O)O)cc2)c(=O)c1CCO	/	/	-6	2	1	1	-1	/
O=C(NCC(c1cccs1)N1CCOCC1)c1cc(-c2ccc(F)cc2)nc2ccccc12 (stereo not drawn)	8	/	-24	-5	-4	-3	-2	i
CN(C)S(=O)(=O)N(CC(=O)Nc1cccc(F)c1)c1ccccc1	-6	-9	-12	10	4	-3	2	i
NC(=O)N/N=C/c1coc2ccc(O)cc2c1=O	-4	-15	-9	13	2	4	4	i
COC(=O)Nc1cc(C)nc2ccccc12	3	-10	/	10	/	/	-4	i
COC(=O)c1cccc(NC(=O)c2onc3c2CCCC3)c1	18	-20	-72	1	4	2	2	i
O=C(Nc1ncc([N+](=O)[O-])s1)c1ccco1	-9	-11	-18	-1	4	-4	-12	i
CCN(CC)c1ncnc2c1ncn2[C@H]1CN(Cc2cc(OC)c(OC)c(OC)c2)C[C@@H](CO)O1	/	-8	18	/	-1	0	/	/
Clc1ccc(-c2nnc(-c3ccc(Br)cc3)c(N3CCSCC3)n2)cc1	-4	-14	-38	-11	-2	-4	-12	i
COC(=O)c1ccc(NC(C(=O)OC)C(C)C)c([N+](=O)[O-])c1 (stereo not drawn)	-8	/	16	10	4	3	3	i
C/C(=N\NC(=O)c1ccc(CSc2nncn2C)cc1)c1cccs1	-3	/	-2	2	3	7	3	i
C=CCSc1nnc(-c2ccc([N+](=O)[O-])cc2)o1	-1	-3	-43	0	0	-3	-10	i
Later entries:
SMILES	CSC inhib	Yeast UUG start	HIV Env fusion	PABP FP inh	MT1-MMP act inh	MT1-MMP act inh RFP	eIF4H inh	Rce1 inhib
N#Cc1cc(S(=O)(=O)c2ccc(Cl)cc2)c(N)[nH]c1=O	-16	-3	16	-3	3	3	-1	i
COc1ccc(CCNC(=O)c2ccccc2SC)cc1	4	/	-44	18	0	-3	3	i
CC(C)(C)n1nnnc1C(c1cc2cc3c(cc2[nH]c1=O)OCCO3)N1CCSCC1 (stereo not drawn)	1	/	/	-5	0	9	-2	i
Cc1cccc(C(=O)Oc2ccc(/C=N/NC(=O)c3ccc(O)cc3)cc2)c1	0	-15	-3	-5	-3	1	5	i
O=c1/c(=C/c2ccc([N+](=O)[O-])cc2)sc2n1CCCN=2	51	-8	/	2	-3	-4	-4	i
c1ccc(CN2CCC3CC2c2c3cccc2N2CCOCC2)cc1 (stereo not drawn)	/	-3	2	/	6	10	/	/
COc1ccccc1N1CCN(C2CC(=O)N(c3ccc(Cl)cc3)C2=O)CC1 (stereo not drawn)	-7	-8	3	5	2	0	13	i
O=C(NCc1cccnc1)NC1(c2ccccc2)CC1	5	-7	-14	-11	7	3	-2	i
CCn1nc(C)c(Br)c1-c1nc(-c2cccc(C)c2)no1	7	-19	4	-1	-5	1	-6	i
Cc1cccc2sc(NS(C)(=O)=O)nc12	/	/	19	-8	-1	-1	-10	/
COc1cc(C(=O)N/N=C(\C)Cn2nc([N+](=O)[O-])cc2C)ccc1O	-7	-16	6	9	1	4	-2	i
Cc1ccc(/C=N/NC(=O)CNC(=O)Cc2ccccc2)o1	-12	/	-20	16	-1	-1	-3	i
COc1cc(/C=C2/C(=O)N(c3ccc(Br)cc3)N=C2C)cc(OC)c1OC	/	-24	/	9	-4	-15	9	i
CC(C)c1ccc(OCC(=O)NC2CCCC2)cc1	1	7	5	-1	-2	0	-11	i
CC(C)N1CCc2c(sc(NC(=O)c3nc4ccccc4s3)c2C(N)=O)C1	-3	/	12	-2	-55	3	-9	i
CCOc1cccc(/C=N/Nc2ccc(S(=O)(=O)N(CC)CC)cn2)c1O	117*	/	48	-9	-3	-13	12	i
Cn1c(=O)c2c(nc(NCCNC(=O)c3ccco3)n2Cc2ccccc2Cl)n(C)c1=O	-11	-14	7	-5	-6	-11	-9	i
CC(=O)N1CCN=C1SCc1ccc(Cl)cc1	-2	1	-34	5	5	8	0	i
CN(C)CCOCCP(=O)(c1ccccc1)c1ccccc1	9	-13	6	3	-1	3	2	i
NC(=O)CSc1ccc(Br)cc1	-11	-16	25	0	-4	1	6	i
Cc1c(Cl)cccc1NC(=O)CC1Sc2ccccc2NC1=O (stereo not drawn)	0	-2	-1	9	-3	-5	-2	i
Cc1nn(-c2ccccc2)c(-c2ccccc2[N+](=O)[O-])c1C(=O)O	5	-17	6	1	0	5	-4	i
CCCOc1ccc(C(=O)Nc2cccnc2)cc1	-4	-19	-11	13	1	-2	-5	i
C/C(=N/OC(=O)c1ccc(C)cc1)c1cccs1	-3	-90	/	1	4	8	-8	i
CSc1nc(=O)n2cccc(C)c2n1	7	-9	-10	-1	0	7	0	/
COc1ccc(OC)c(Nc2ccc(Nc3cc(OC)ccc3OC)nn2)c1	14	-12	/	-8	7	13	-2	i
Cc1nn(-c2cc(C)c3ccccc3n2)c2c1C1C(C2)C1(C)C (stereo not drawn)	25	-5	7	-14	-5	-3	6	i
CCCCCCN1CC(=O)N2Cc3[nH]c4ccccc4c3C[C@H]2C1=O	-1	-1	21	-7	-2	4	5	i
CC(C)N(Cc1ccccc1)C(=O)COC(=O)c1ccc(S(=O)(=O)N2CCOCC2)cc1	3	7	/	/	2	-1	/	/
Cc1ccc(C(CC(=O)NCc2ccco2)c2ccccc2)c(O)c1 (stereo not drawn)	-12	1	/	3	7	-7	1	i

Filtered by structure, the compounds so far containing a COOH group.
SMILES	CSC inhib	Yeast UUG start	HIV Env fusion	PABP FP inh	MT1-MMP act inh	MT1-MMP act inh RFP	eIF4H inh	Rce1 inhib
CN(CC(=O)O)Cc1nc2ccccc2[nH]1	6	4	/	20	-5	-3	11	i
CCCCn1c(CCC(=O)O)ccc1-c1cccs1	9	-19	5	5	-1	7	7	i
C=Cc1c(C)c2cc3[nH]c(cc4nc(cc5nc(cc1[nH]2)C(C)=C5CCC(=O)O)C(CCC(=O)O)=C4C)c(C)c3C=C	14&32	-14&-4	/	/	18&26	5&8	/	i
Cc1[nH]n(-c2ccc(C(=O)O)cc2)c(=O)c1CCO	/	/	-6	2	1	1	-1	/
Cc1nn(-c2ccccc2)c(-c2ccccc2[N+](=O)[O-])c1C(=O)O	5	-17	6	1	0	5	-4	i

High-throughput results: PubChem, several laboratories

The list is partial. The share of hits here may be higher or lower than overall.
